HCMV NEC inh: inhibitors of HCMV UL50-UL53 interaction, biochemical, HTRF | inhibition, % (no concentration beside the values) | HCMV UL50-UL53 nuclear egress complex (human cytomegalovirus) | normalized percent inhibition | 190,000 compounds, 0.15% hits;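 active means both replicates at 50% or more, plus weaker picks with an unusually low signal ratio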;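 further: stock transfer was 100 nL into about 20 µL; 0% = negative control wells and 100% = wells with untagged competitor protein; inactives centre near -12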
GIV Gai3 FP: inhibitors of GIV peptide binding to Galpha-i3, primary screen, biochemical, fluorescence polarization, FITC-GIV GBA peptide, rat Galphai3; Guanine nucleotide-binding protein G(i) subunit alpha-3 (Rattus norvegicus), P08753; 90 min; active compounds read low; scaled: aluminum fluoride 0%, vehicle 100%; percent of control (FP), % (no concentration beside the values); 210,000 compounds, 0.42% hits; AID 1224905, 2016;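 active means replicate mean at 85% of control or lower, very high polarization wells dropped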;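 further: wells of about 15 µL received 100 nL stock; the first replicate is given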
Target sequence (P08753 whole entry, looked up): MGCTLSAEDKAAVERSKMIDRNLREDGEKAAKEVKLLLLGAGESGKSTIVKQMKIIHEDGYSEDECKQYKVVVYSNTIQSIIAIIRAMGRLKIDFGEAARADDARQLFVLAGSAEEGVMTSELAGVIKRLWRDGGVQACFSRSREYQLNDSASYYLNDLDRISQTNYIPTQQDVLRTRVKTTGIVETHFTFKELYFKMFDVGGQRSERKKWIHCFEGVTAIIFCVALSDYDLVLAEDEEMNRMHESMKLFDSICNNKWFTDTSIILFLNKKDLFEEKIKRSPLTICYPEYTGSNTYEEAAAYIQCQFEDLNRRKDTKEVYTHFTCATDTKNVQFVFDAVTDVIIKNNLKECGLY
Sa growth inh: S. aureus growth inhibition at 42 and 30 °C, primary screen, LtaS inhibitor project, RN4220, two temperatures; OD600, 20 h, 42 °C; active compounds read low; relative growth, % (test concentration not listed); 170,000 compounds, 0.53% hits;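 active means growth at 42 °C up to 50% and 20 or more points under that at 30 °C, or under 10% at both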;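 further: 300 nL library stock went into each well; scaled to the means of positive and negative controls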
Sa growth inh second temp: second read-out of Sa growth inh, no call of its own (marks repeat the call); relative growth, %; measured here: growth at 30 °C;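 optical density after 20 h as mean of two plates; 100% = untreated growth and lower means inhibition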
Numbers without * were called inactive; / = no result given; & = joins results of further samples.

SMILES	HCMV NEC inh	GIV Gai3 FP	Sa growth inh	Sa growth inh second temp
CNC(=O)CS(=O)(=O)c1cn(CC(=O)N2CCCC2)c2ccccc12	/	99	91	88
CCc1ccc(CNC(=O)CSc2nc3cccnc3n(CC)c2=O)cc1	-61	234	/	/
CCc1ccccc1Nc1cc(C(=O)NC(C)c2ccccc2)c2ccccc2n1 (stereo unspecified)	-17	102	101	86
COc1ccccc1N1CCN(c2nc3ccccc3n3c(C)nnc23)CC1	-15&-20	105&104	91	73
CCC(C)NC(=O)C1c2ccccc2C(=O)N1C(C)CCc1ccccc1 (stereo unspecified)	-3	104	104	90
CC(c1ccccc1)n1nnc2ccccc21 (stereo unspecified)	-1	99	69	92
S=c1[nH]nc(C2CC2)o1	8	/	108	94
COCCn1nnnc1C(c1cc2c(C)ccc(C)c2[nH]c1=O)N1CCCc2ccccc21 (stereo unspecified)	-22	139	94	78
CCOc1ccc(NC(=O)CCc2ccc(OC)cc2)cc1	-19	/	90	81
Cc1cc(C)nc(NS(=O)(=O)c2ccc(Nc3nc(-c4ccc(F)cc4F)cs3)cc2)n1	3	109	/	/
CCOc1ccc(NCCC(=O)c2ccc(NS(C)(=O)=O)cc2)cc1	3	101	105	81
COc1ccc(Nc2ncc(C(=O)N3CCN(c4ccc(F)cc4)CC3)c3ccccc23)cc1	-15	100	104	87
Cc1ccccc1-c1nc(CS(=O)(=O)CC(=O)NCCCc2ccccc2)c(C)o1	21	106	101	88
COC(=O)CN1C(=O)C(C)(C)c2cc(S(=O)(=O)NCc3ccc(Cl)cc3)ccc21	/	101	108	79
Cc1nn(-c2ccccc2)c2sc(C(=O)NC(C)C)cc12	-10	/	91	69
CC(C)NC(=S)N=Nc1c(O)n(C)c2ccccc12	-35	/	102	88
CC1(C)Cc2cccc(OCCNS(=O)(=O)c3ccc(-n4cnnn4)cc3)c2O1	-7	105	106	86
S=c1oc(-c2ccccc2)nn1CN1CCCCC1	-18	103	103	87
CC(=O)Nc1ccc(C2N=C(c3cnccn3)NN2)cc1 (stereo unspecified)	-138	102	95	82
CC(C)CC1(C)NC(=O)N(CC(=O)c2ccc(N(C)S(C)(=O)=O)cc2)C1=O (stereo unspecified)	-16	/	74	92

Looked up above.
Sa growth inh result of `Cc1nn(-c2ccccc2)c2sc(C(=O)NC(C)C)cc12` reads 91
Sa growth inh result of `CCOc1ccc(NCCC(=O)c2ccc(NS(C)(=O)=O)cc2)cc1` reads 105

(more compounds)
SMILES	HCMV NEC inh	GIV Gai3 FP	Sa growth inh	Sa growth inh second temp
COc1ccc(Nc2cc(C(=O)N3CCc4ccccc4C3)c3ccccc3n2)c(OC)c1	/	102	100	84
O=C(CSC1=NCCS1)NCc1ccco1	-11	105	109	108
CCc1cccc(C)c1NC(=S)NCCC(=O)O	5	99	107	100
COc1ccc(C2=NN(C(C)=O)C(c3cn(-c4ccccc4)nc3-c3ccccc3)C2)cc1OC (stereo unspecified)	-12	100	/	/
Cc1noc2nc(C)n(Cc3ccc(F)cc3)c(=O)c12	-2	105	/	/
Fc1ccc(CN2CCCCCC2)cc1F	6	101	104	114
CC1(C)O[C@H]2[C@@H](O1)[C@@H](C(=O)Nc1ccccc1C(F)(F)F)O[C@@H]1OC(C)(C)O[C@@H]12	-3	108	105	94
COc1ccc(C(=O)NCC(c2ccc(OC)cc2)N2CCCCC2)cc1 (stereo unspecified)	-16	104	/	/
CCN(CC)c1nc(NN)nc(Nc2ccc(C)c(Cl)c2)n1	-8	102	77	16
CCn1c(=O)c2c(=O)cc(N)[nH]c2n(Cc2ccccc2)c1=O	-20	/	80	99
COc1ccc(NC(=O)CCS(=O)(=O)c2ccc3c(c2)oc(=O)n3C)cc1OC	/	109	127	101
CCCCN(CCCC)C(=O)c1c[nH]c2ccc(S(=O)(=O)Nc3cccc(Cl)c3C)cc2c1=O	/	97	102	91
COc1ccc(OC)c(S(=O)(=O)N2CCN=C2N2CCN(c3cccc(Cl)c3)CC2)c1	2	99	/	/
Cc1ccc(/C=N/NC(=O)C(c2ccccc2)c2ccccc2)o1	-19	103	92	84
COc1cc(OC)cc(N2C(=O)CN(S(C)(=O)=O)CC2(C)C(=O)NC2CCCC2)c1 (stereo unspecified)	16	105	/	/
Cc1ccc(-c2cc(C(F)F)nc(NCC3CCCO3)n2)cc1 (stereo unspecified)	-10	95	101	92
COc1ccc2nc(-c3ccc(N)cc3)[nH]c2c1	-21	104	143	93
Cc1ccc2c(CC(=O)N(C)Cc3nc4ccccc4c(=O)[nH]3)coc2c1	-5	/	129	98
Cc1cc(C)cc(-c2nnc3ccc(Cl)nn23)c1	-47	107	/	/
CC[n+]1c(/C=C/N(C)c2ccccc2)sc2ccc(OC)cc21	/	114	-0.6*	-0.2*
O=C(NCCc1ccccc1)N1c2ccccc2Sc2ccccc21	/	106	103	79
Cc1nc2nncn2c(Nc2ccccc2)c1C	-29	101	90	86
CC1C(O)=C(c2ccc(F)cc2)C(=N)N1c1ccccc1 (stereo unspecified)	-6	/	98	85
Nc1cccc(OCc2ccc(F)cc2)c1	/	105	107	94
NCCc1c(C(=O)O)[nH]c2ccccc12	-4	104	118	89
O=S(c1ccc2ccccc2c1)N(Cc1ccc(F)cc1)Cc1ccco1 (stereo unspecified)	-2	110	109	101
Cc1c(C(=O)Nc2ccccc2F)sc2nc3n(c(=O)c12)CCC3	-13	103	100	85
CCOC(=O)C(CC)SC1=NS(=O)(=O)c2cc(Cl)ccc2N1 (stereo unspecified)	-23	106	63	36
O=C(NCc1cccc(Cl)c1)c1cccc(NC(=O)N2CCCCc3ccccc32)c1	0	107	/	/
CCOC(=O)c1cc(NC(=O)N2CCN(c3ccc(OC)cc3)CC2)c(C)nc1C	-15	97	/	/

2 compounds from above, showing only GIV Gai3 FP, Sa growth inh second temp and HCMV NEC inh.
Compound,GIV Gai3 FP,Sa growth inh second temp,HCMV NEC inh
NCCc1c(C(=O)O)[nH]c2ccccc12,104,89,-4
O=S(c1ccc2ccccc2c1)N(Cc1ccc(F)cc1)Cc1ccco1 (stereo unspecified),110,101,-2

(more compounds)
SMILES	HCMV NEC inh	GIV Gai3 FP	Sa growth inh	Sa growth inh second temp
COC(=O)c1ccc(N=C2SC(C(=O)Nc3ccc(C(=O)O)cc3)CC(=O)N2C)cc1 (stereo unspecified)	-22	102	/	/
CN(c1ccccc1)S(=O)(=O)c1ccc(I)cc1	0	105	125	87
COC(=O)c1c(C)oc2cc(Br)c(OCc3ccc([N+](=O)[O-])cc3)cc12	-5	99	/	/
COC(=O)c1[nH]c(C(=O)OC)c(O)c1O	-12	59*	82	84
CCOC(=O)c1cnc2c(Cl)c(Cl)ccc2c1NCCOC(=O)C(C)C	/	100	99	75
CC1CCC2(CC1)NC(=O)N(Nc1ccc(S(=O)(=O)N3CCCC3)cn1)C2=O (stereo unspecified)	-33	/	91	95
CCCC(=O)N1c2ccccc2NC2=C(C(=O)CCC2)C1c1ccc(O)c(OC)c1 (stereo unspecified)	-26	99	82	81
Cc1ccccc1Nc1ncnc2c1cnn2C	/	104&103	115	90
Cc1cccc(C2CCCN2C(=O)c2cc(C)no2)c1 (stereo unspecified)	-11	108	/	/
CCOC(=O)c1ccc(NC(=O)CC2Nc3cc(C)c(C)cc3NC2=O)cc1 (stereo unspecified)	-42	105	99	88
Cc1ccc2c(cnn2C(=O)CCCC(=O)NC2CCCc3ccccc32)c1 (stereo unspecified)	/	107	106	84
CC1CCN(S(=O)(=O)c2cc(C(=O)N3CCN(c4ccc(F)cc4)CC3)n(C)c2)CC1	-8	113	/	/
Cc1ccc(C)c(NC(=O)CCc2nc3cccnc3n2Cc2cccs2)c1	-6	117	98	91
CCCCN(C(=S)NC1CCCCC1)c1c(N)n(CCC)c(=O)[nH]c1=O	-18	/	102	89
CNC(=O)COC(=O)c1cccnc1Cl	-16	/	94	83
O=C(NCCc1nc2cccnc2n1C1CCCC1)Nc1ccc2c(c1)OCCO2	1	115	/	/
Cc1ccc(NC(=O)CC(O)(C(F)(F)F)C(F)(F)F)cc1	/	105	39	10
Cc1noc(C)c1S(=O)(=O)NC1CCCc2ccccc21 (stereo unspecified)	-18	107	101	72
O=C(c1ccccc1)N1N=C(c2ccc([N+](=O)[O-])cc2)CC1(O)C(F)(F)F (stereo unspecified)	-87	99	/	/
c1ccc(-c2cnc(CSc3ncnc4sccc34)o2)cc1	-7	/	109	101
Cc1cccc2nc(Cn3ccccc3=O)cn12	0	/	84	103
OC(CN1CCN(Cc2ccc3c(c2)OCO3)CC1)c1ccccc1 (stereo unspecified)	5	107	112	92
COc1ccc(OC)c(NC(=O)COCc2cc(-c3ccco3)on2)c1	/	102	101	87
O=C(c1ccccc1F)N1CCN(c2cc(=O)n3nc(-c4ccccc4)sc3n2)CC1	-21	103	/	/
CCC(Sc1nc2ncccc2c(=O)n1CC1CCCO1)C(=O)Nc1cccc(OC)c1 (stereo unspecified)	/	101	93	90
O=C(CCN1C(=O)COc2ccccc21)NCc1ccc(F)cc1Cl	-30	100	98	87
CCOc1ccc(NC(=O)N2CCN(Cc3cc(=O)n4nc(-c5ccc(OC)cc5)sc4n3)CC2)cc1	/	103	83	88
O=C(Nc1ccc2nccnc2c1)c1ccc(F)cc1	-80	97	/	/
CCN1CCN(c2ncnc3sc(C(=O)NCCc4c[nH]c5ccc(OC)cc45)c(C)c23)CC1	-54	98	/	/
CC(N)C(c1ccccc1)N1CCOCC1 (stereo unspecified)	11	105	99	88
CCN(C(=O)C1CCN(S(=O)(=O)c2c(C)noc2/C=C/c2ccc(C)cc2)CC1)c1cccc(C)c1	/	98	109	91
CCOC(=O)c1sc2ncnc(N3CCc4ccccc4C3)c2c1C	-9	99	83	89
N#Cc1ccc(CONC(=O)c2cccs2)cc1	-28	/	100	87
Cc1ccc(S(=O)(=O)c2c[nH]c(=S)[nH]c2=O)cc1	/	110	95	93
Cc1ccc(NC(=O)C2C3/C=C\CCCCC32)cc1 (stereo unspecified)	3	/	78	97
C=CCn1c(SCC(=O)c2cccs2)nc2scc(-c3ccccc3)c2c1=O	-4	/	130	100
Cn1c(O)c(N=NC(=S)Nc2ccccc2)c2ccccc21	2	107	65	51
CCS(=O)(=O)c1ccc(O)c(N=Cc2ccc(C)o2)c1	-38	/	72	71
CN(C(=O)c1ccccc1)C(=O)N(C)C(=O)c1ccccc1	6	104	109	98
O=C(O)c1nccnc1C(=O)NCc1csc2ccccc12	-5	103	104	84

Four compounds already listed, ordered by SMILES length, falling.
SMILES	HCMV NEC inh	GIV Gai3 FP	Sa growth inh	Sa growth inh second temp
Cc1ccc(S(=O)(=O)c2c[nH]c(=S)[nH]c2=O)cc1	/	110	95	93
CN(C(=O)c1ccccc1)C(=O)N(C)C(=O)c1ccccc1	6	104	109	98
CCOC(=O)c1sc2ncnc(N3CCc4ccccc4C3)c2c1C	-9	99	83	89
N#Cc1ccc(CONC(=O)c2cccs2)cc1	-28	/	100	87

Pulled by compound from above, three records:
SMILES	HCMV NEC inh	GIV Gai3 FP	Sa growth inh	Sa growth inh second temp
O=C(O)c1nccnc1C(=O)NCc1csc2ccccc12	-5	103	104	84
CCN(C(=O)C1CCN(S(=O)(=O)c2c(C)noc2/C=C/c2ccc(C)cc2)CC1)c1cccc(C)c1	/	98	109	91
CN(C(=O)c1ccccc1)C(=O)N(C)C(=O)c1ccccc1	6	104	109	98

(next part)
SMILES	HCMV NEC inh	GIV Gai3 FP	Sa growth inh	Sa growth inh second temp
Cc1ccc(Cl)cc1N1CCN(CCNC(=O)Nc2ccc(Cl)cc2)CC1	-2	106	117	92
Cc1c(C)n(C)c2ccc(C(=O)NCc3ccccc3Cl)cc12	11	111	/	/
CC(O)Cc1nsc(NC(=O)c2ccc(C(C)(C)C)cc2)n1 (stereo unspecified)	-28	104	/	/
Cc1ccc(C(=O)C2CCOC(C)(C)C2)cc1 (stereo unspecified)	-4	/	111	88
O=C(COC(=O)c1ccc(-c2nnc(-c3ccccc3)o2)cc1)c1ccc(F)cc1	0	/	103	96
N#Cc1ccc(COC(=O)CSC(=S)N2CCOCC2)cc1	-6	/	84	93
CSc1ccc(/C=c2\s/c(=C(/C#N)C(=O)N3CCN(C)CC3)n(-c3cccc(C)c3)c2=O)cc1	-29	/	86	91
COc1ccc(Cn2cnc3c([nH]c4ccc(C)cc43)c2=O)cc1	1	102	/	/
O=C(Nc1nnc(CCS(=O)(=O)c2ccc(Br)cc2)s1)c1ccc([N+](=O)[O-])cc1	-22	100	/	/
Cc1[nH]c(=O)c(C#N)c(C)c1CCC(=O)N1C(=NCc2ccccc2)SCC1(C)C	7	/	103	97
Cc1ccc(S(=O)(=O)c2nc(-c3ccccc3)oc2N2CC(C)OC(C)C2)cc1 (stereo unspecified)	-10	/	92	98
O=C(NCCn1c(-c2ccc(F)cc2)nc2cccnc21)Nc1ccc(Cl)cc1	-23	113	/	/
NC(=O)C1CCCN(C(=O)CCCSc2nc3ccccc3s2)C1 (stereo unspecified)	-13	/	102	95
CN(C)S(=O)(=O)Nc1ccc(Cc2ccncc2)cc1	-25	103	86	85
CCc1nc2nc(C)cc(N3CCN(c4cc(C)ccc4C)CC3)n2n1	-26	99	/	/
O=C(Nc1nc2ccc([N+](=O)[O-])cc2s1)c1ccc(S(=O)(=O)N2CCc3ccccc3C2)cc1	-23	109	/	/

Source: PubChem BioAssay
